rRNA inh HTS: inhibits bacterial ribosomal RNA function over humanized ribosomes; E. coli WT GFP vs humanized-ribosome RFP mutants, fluorescence, 24 h; stronger effect = lower value; DMSO median 0, no signal -100; GFP signal change (wild-type ribosome), % (test concentration not listed); actives 1.6% (n = 350,000); AID 720706;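 active means significant combined selectivity score with lowered wild-type GFP, culture density cut under 30%, mutant RFP and density less affected; inactive means any of these conditions unmet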; further: one replicate is shown; some compounds called inactive have numbers as strong as hits
FGF22 binding: shifts melting point of recombinant human FGF22 | recombinant FGF22 thermal shift, SYPRO orange fluorescence; percent of sucrose octasulfate shift, DMSO zero | calls only at 9.99 µM | actives 1.5% (n = 340,000) | AID 651658;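 active means melting point raised past a set limit in the mean and every replicate; three in four hits are not shown here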
Target sequence (Q9HCT0 whole entry, looked up): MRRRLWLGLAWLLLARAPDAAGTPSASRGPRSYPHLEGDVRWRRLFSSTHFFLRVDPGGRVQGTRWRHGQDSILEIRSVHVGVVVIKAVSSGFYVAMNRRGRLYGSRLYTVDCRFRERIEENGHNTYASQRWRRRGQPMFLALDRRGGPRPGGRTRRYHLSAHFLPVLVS
rRNA inh HTS OD600: also measured in rRNA inh HTS; calls as there; OD600 change, %; measured here: OD600 growth;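 optical density of the mix in the first replicate; 0 = DMSO median and -100 = no signal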
rRNA inh HTS RFP: recorded beside rRNA inh HTS, whose call it bears; RFP signal change, %; measured here: RFP humanized mutant strains;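 first replicate; 0 = DMSO median and -100 = no signal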
* marks the source's active call; other numbers are inactive results; i = inactive. These rows are one share of the data; rates above refer to the full screens.

rRNA inh HTS RFP	FGF22 binding	rRNA inh HTS	rRNA inh HTS OD600	structure
9.2	i	1	-8	COc1ccc(C#Cc2ccc3c(c2)O[C@@H](CN(C)C(=O)c2ccccn2)[C@H](C)CN([C@@H](C)CO)S3(=O)=O)cc1
-0.2	i	-2	4	O=C(N[C@H]1CC[C@H](CCNS(=O)(=O)c2ccc(F)cc2)O[C@@H]1CO)C1CCC1
0.8	i	4	10	CC(C)NC(=O)N1CCCCN2[C@H](CO)[C@H](c3ccc(C#C[C@H](C)O)cc3)[C@@H]2C1
1.8	i	1	3	C[C@@H]1CCCCO[C@@H](CN(C)C(=O)Nc2ccc(C(F)(F)F)cc2)[C@@H](C)CN([C@H](C)CO)C(=O)c2cc(NC(=O)c3ccncc3)ccc2O1
0.0	i	2	8	C[C@@H]1CCCCO[C@H](CN(C)S(=O)(=O)c2cn(C)cn2)[C@H](C)CN([C@@H](C)CO)C(=O)c2cc(N(C)C)ccc2O1
-1.8	i	-2	-5	C[C@H](CO)N1C[C@H](C)[C@@H](CN(C)C(=O)Nc2ccc(C(F)(F)F)cc2)Oc2cc(-c3ccncc3)ccc2S1(=O)=O
-2.0	i	3	5	CNC[C@@H]1Oc2ccc(NC(=O)Cc3ccccc3)cc2C(=O)N([C@@H](C)CO)C[C@@H]1C
1.3	i	2	3	CO[C@H](CN(C)C(=O)c1ccc2c(c1)OCO2)[C@@H](C)CN([C@H](C)CO)S(=O)(=O)c1ccccc1
3.8	i	-1	-6	COc1cccc(S(=O)(=O)N[C@@H]2CC[C@@H](CCn3cc(-c4ccc(F)cc4)nn3)O[C@@H]2CO)c1
0.2	i	1	-4	CC(C)c1cn(CC[C@@H]2CC[C@H](NC(=O)C3CCC3)[C@H](CO)O2)nn1
-1.8	i	3	-1	C[C@H](CO)N1C[C@H](C)[C@@H](CN(C)C)Oc2ccc(NC(=O)Cc3cn(C)c4ccccc34)cc2C1=O
-1.9	i	1	-8	Cc1noc(C)c1NC(=O)N[C@H]1C=C[C@@H](CC(=O)NCCCN(C)C)O[C@H]1CO
0.2	i	-1	1	CCCN1C[C@@H](C)[C@H](OC)CN(C)C(=O)c2ccc(NS(C)(=O)=O)cc2OC[C@@H]1C
0.3	i	0	-3	C[C@@H](NC(=O)C[C@@H]1CC[C@@H](NS(=O)(=O)c2cccc(F)c2)[C@H](CO)O1)c1ccccc1
-0.1	i	0	8	C[C@H](CO)N1C[C@H](C)[C@H](CN(C)C(=O)Nc2ccc(-c3ccccc3)cc2)OCc2ccccc2-c2c(n(C)c3ccccc23)C1=O
-1.0	i	4	1	C[C@H](CO)N1C[C@H](C)[C@@H](CN(C)S(=O)(=O)c2cn(C)cn2)Oc2ccc(NC(=O)C3CCCCC3)cc2CC1=O
0.1	i	2	4	COc1ccc(S(=O)(=O)Nc2cccc3c2O[C@@H](CN(C)C(=O)Nc2ccccc2)[C@H](C)CN([C@H](C)CO)C3=O)cc1
-3.1	i	-2	2	O=C(C[C@@H]1C[C@@H]2c3cc(NS(=O)(=O)c4ccc(F)cc4)ccc3O[C@@H]2[C@H](CO)O1)NC1CCCCC1
-2.1	i	6	0	CC(C)CC#Cc1cnc2c(c1)C(=O)N([C@H](C)CO)C[C@H](C)[C@H](CN(C)C(=O)c1cnccn1)O2
1.2	i	5	7	CC(C)NC(=O)N[C@H]1C=C[C@H](CC(=O)NC2Cc3ccccc3C2)O[C@@H]1CO
0.9	i	2	2	C[C@@H]1CN([C@H](C)CO)C(=O)Cc2cc(NC(=O)CCN3CCOCC3)ccc2O[C@@H]1CN(C)C(=O)Nc1ccc(C(F)(F)F)cc1
-1.2	i	0	-3	COc1ccc(CN(C)C[C@@H]2OCCCC[C@H](C)Oc3ccc(NC(=O)Cc4ccccc4)cc3C(=O)N([C@H](C)CO)C[C@H]2C)cc1
-1.1	i	1	6	C[C@@H]1CN([C@@H](C)CO)C(=O)c2cc(NC(=O)Nc3ccc(C(F)(F)F)cc3)ccc2O[C@H]1CN(C)Cc1ccccc1
1.6	i	4	3	CCCNC(=O)N[C@H]1CC[C@H](CC(=O)N2CCN(C)CC2)O[C@@H]1CO
-0.9	i	-4	9	CCCNC(=O)N(C)C[C@H]1Oc2ncc(/C=C/c3ccccc3)cc2C(=O)N([C@H](C)CO)C[C@@H]1C

Part of the list above in order of formula weight, lowest first:
rRNA inh HTS RFP	FGF22 binding	rRNA inh HTS	rRNA inh HTS OD600	structure
-0.2	i	-2	4	O=C(N[C@H]1CC[C@H](CCNS(=O)(=O)c2ccc(F)cc2)O[C@@H]1CO)C1CCC1
0.0	i	2	8	C[C@@H]1CCCCO[C@H](CN(C)S(=O)(=O)c2cn(C)cn2)[C@H](C)CN([C@@H](C)CO)C(=O)c2cc(N(C)C)ccc2O1
-1.2	i	0	-3	COc1ccc(CN(C)C[C@@H]2OCCCC[C@H](C)Oc3ccc(NC(=O)Cc4ccccc4)cc3C(=O)N([C@H](C)CO)C[C@H]2C)cc1

Following part.
rRNA inh HTS RFP	FGF22 binding	rRNA inh HTS	rRNA inh HTS OD600	structure
1.9	i	8	8	CCCCCCCCN1C(=O)[C@@H](CC(=O)N2CCSCC2)C[C@@]2(C(=O)OC)C1=C[C@H](C(C)(C)C)O[C@@H]2C
-1.3	i	1	-5	CC(=O)N[C@@H]1CC[C@H](CC(=O)NCC2CCCCC2)O[C@@H]1CO
23	i	1	-9	CCNC(=O)C[C@@H]1CC[C@H]2[C@@H](COC[C@H](O)CN2C(=O)C2CCCC2)O1
-1.6	i	4	5	CC(C)NC(=O)N(C)C[C@@H]1Oc2ccc(NS(=O)(=O)c3cn(C)cn3)cc2CC(=O)N([C@@H](C)CO)C[C@H]1C
2.4	i	-7	-18	CCCC#Cc1ccc2c(c1)O[C@H](CN(C)C(=O)Nc1ccccc1F)[C@@H](C)CN([C@@H](C)CO)S2(=O)=O
-2.5	i	-5	-12	C[C@H](O)C#Cc1ccc2c(c1)O[C@@H](CN(C)Cc1ccccn1)[C@H](C)CN([C@@H](C)CO)S2(=O)=O
2.9	i	2	13	O=C(C[C@H]1CC[C@@H]2[C@H](COC[C@H](O)CN2C(=O)Nc2ccccc2)O1)NCCCN1CCOCC1
-2.6	i	0	4	O=C(C[C@@H]1CC[C@H]2[C@@H](COC[C@H](O)CN2Cc2ccccc2)O1)NCCCN1CCOCC1
-3.2	i	-20	-22	O=C(Nc1ccccc1Cl)N1C[C@@H]2[C@H](c3ccccc31)[C@@H](CO)N2Cc1ccccc1
27	i	-33	-64	CCCN1[C@H](C(=O)N[C@H](C)c2ccccc2)[C@@H](CO)[C@@H]2Cn3c(ccc(-c4cccc(F)c4)c3=O)[C@@H]21
1.0	i	-6	-14	C[C@@H]1CN([C@@H](C)CO)C(=O)c2cc(NS(=O)(=O)c3ccc(Cl)cc3)ccc2O[C@H]1CN(C)Cc1ccc2c(c1)OCO2
-0.2	i	2	3	CO[C@H]1CN(C)C(=O)c2cc(NC(=O)c3cnccn3)ccc2OC[C@@H](C)N(C(C)=O)C[C@H]1C
12	i	-5	4	CNC[C@H]1Oc2cc(C#Cc3ccccc3OC)ccc2S(=O)(=O)N([C@@H](C)CO)C[C@@H]1C
1.9	i	-2	0	COc1ccc(NC(=O)Nc2ccc3c(c2)C(=O)N([C@H](C)CO)C[C@@H](C)[C@H](CN(C)S(=O)(=O)c2ccc(F)cc2)O3)cc1
-1.7	i	5	11	CO[C@H]1CC[C@H]2CCN(C)C(=O)[C@@H](C)CN(C)C(=O)c3cc(C#N)ccc3OC[C@H]1O2
16	i	-4	-50	C[C@@H]1CN([C@H](C)CO)S(=O)(=O)c2ccc(C#Cc3ccc(F)cc3)cc2O[C@@H]1CN(C)C(=O)c1ccccn1
-6.2	i	-1	-4	O=C(C[C@H]1CC[C@H]2[C@@H](COC[C@H](O)CN2Cc2nccs2)O1)NCc1ccc(Cl)cc1
0.8	i	-2	3	COc1ccc(NC(=O)Nc2cccc3c2O[C@H](CN(C)CC2CCCCC2)[C@H](C)CN([C@H](C)CO)C3=O)cc1
2.9	i	-1	4	CCC(=O)N1C[C@@H](C)[C@@H](OC)CN(C)C(=O)c2ccc(NC(=O)Nc3ccccc3)cc2OC[C@H]1C
-2.0	i	5	6	C[C@@H]1CN([C@@H](C)CO)C(=O)Cc2cc(NC(=O)C3CCCCC3)ccc2O[C@@H]1CN(C)Cc1ccc(C(=O)O)cc1
0.3	i	0	3	CCC(=O)N1[C@@H](CO)[C@@H](c2ccccc2)[C@@H]1CN(CC)C(=O)c1cccc(F)c1
-1.9	i	6	12	C[C@H](CO)N1C[C@H](C)[C@@H](CN(C)S(=O)(=O)c2cn(C)cn2)Oc2ncc(C#CCN(C)C)cc2C1=O
0.2	i	-2	-3	COc1ccc(NC(=O)Nc2ccc3c(c2)C(=O)N([C@@H](C)CO)C[C@@H](C)[C@H](CN(C)S(=O)(=O)c2c(C)noc2C)OCCCC[C@@H](C)O3)cc1
-0.9	i	1	1	COc1ccc(NC(=O)N(C)C[C@H]2Oc3ccc(NC(=O)Nc4c(C)noc4C)cc3CC(=O)N([C@@H](C)CO)C[C@@H]2C)cc1
4.5	i	-9	5	CN(C)C(=O)c1cccc(-c2ccc([C@@H]3[C@H](CO)N4CCCCN(CCC(F)(F)F)C[C@@H]34)cc2)c1
-1.0	i	1	5	Cc1noc(C)c1S(=O)(=O)N(C)C[C@@H]1OCCCC[C@H](C)Oc2ccc(NS(=O)(=O)c3cn(C)cn3)cc2C(=O)N([C@@H](C)CO)C[C@H]1C
-3.9	i	-3	3	CCOC(=O)N(C)C[C@H]1OCc2ccccc2-c2ccccc2C(=O)N([C@@H](C)CO)C[C@H]1C
-1.9	i	1	4	C[C@@H]1CN([C@H](C)CO)C(=O)c2cc(NC(=O)CCCCCC(=O)Nc3ccccc3N)ccc2O[C@H]1CN(C)C(=O)NC1CCCCC1
-0.4	i	-6	-13	CCC(=O)N[C@H]1CC[C@@H](CCNC(=O)Nc2ccc(F)cc2)O[C@@H]1CO
-0.3	i	2	4	CCNC(=O)C[C@H]1C=C[C@H](NC(=O)C2CCOCC2)[C@H](CO)O1
5.8	i	-7	-13	C[C@@H]1CN([C@@H](C)CO)C(=O)c2cccc(NC(=O)Nc3ccccc3)c2O[C@@H]1CN(C)Cc1ccc(C(F)(F)F)cc1
2.7	i	11	38	CN1OC[C@@H]2CN(C(=O)c3ccc([N+](=O)[O-])cc3)[C@H](c3ccccc3Br)C[C@@H]21
6.8	i	-1	-13	CCC(=O)N1C[C@H](C)[C@@H](OC)CN(C)C(=O)c2ccc(NC(=O)Nc3ccc(Cl)cc3)cc2OC[C@H]1C
-2.7	i	2	2	C[C@@H]1CN([C@H](C)CO)C(=O)Cc2cc(NS(C)(=O)=O)ccc2O[C@H]1CN(C)S(=O)(=O)c1cccs1
-2.9	i	-1	5	O=C([C@@H]1[C@@H](CO)[C@@H]2Cn3c(ccc(-c4cccc(F)c4)c3=O)[C@@H]2N1Cc1cocn1)N1CCCCC1
1.5	i	1	2	CCNC(=O)[C@H]1[C@H](CO)[C@H]2Cn3c(ccc(-c4ccccc4F)c3=O)[C@H]2N1CC
-2.6	i	2	13	COc1ccc2c3c([nH]c2c1)[C@@H](CO)N(C(=O)c1ccccc1)CC31CCN(C(=O)CC2CC2)CC1
-0.9	i	-7	-3	C[C@@H]1CN([C@H](C)CO)C(=O)Cc2cc(NC(=O)Nc3cccc4ccccc34)ccc2O[C@H]1CN(C)C(=O)Nc1ccccc1
-3.9	i	0	12	O=C(O)C[C@H]1C[C@@H]2c3cc(NC(=O)C4CCC4)ccc3O[C@@H]2[C@@H](CO)O1
3.8	i	-6	-12	CC(C)NC(=O)N(C)C[C@H]1Oc2ccc(NC(=O)Nc3ccc(C(F)(F)F)cc3)cc2CC(=O)N([C@@H](C)CO)C[C@H]1C
1.6	i	1	4	NCC[C@H]1CC[C@@H](NS(=O)(=O)Cc2ccccc2)[C@@H](CO)O1
-2.7	i	-10	-10	CCCNC(=O)N1CC2(CCN(C(=O)CC3CC3)CC2)c2c(n(C)c3cc(OC)ccc23)[C@H]1CO
-3.9	i	6	8	C[C@H]1CN([C@@H](C)CO)C(=O)c2cc(-c3ccc(C(=O)N(C)C)cc3)cnc2O[C@H]1CN(C)C(=O)c1ccncc1
-0.1	i	4	6	Cc1noc(C)c1NC(=O)N(C)C[C@@H]1Oc2ccc(NC(=O)Nc3ccc4c(c3)OCO4)cc2C(=O)N([C@@H](C)CO)C[C@@H]1C
1.9	i	1	2	Cc1ccc(S(=O)(=O)Nc2ccc3c(c2)C(=O)N([C@@H](C)CO)C[C@H](C)[C@H](CN(C)Cc2ccc(-c4ccccc4)cc2)O3)cc1

An excerpt from above, reduced to rRNA inh HTS and rRNA inh HTS OD600:
Molecule | rRNA inh HTS | rRNA inh HTS OD600
CC(C)NC(=O)N1CCCCN2[C@H](CO)[C@H](c3ccc(C#C[C@H](C)O)cc3)[C@@H]2C1 | 4 | 10
C[C@@H]1CCCCO[C@@H](CN(C)C(=O)Nc2ccc(C(F)(F)F)cc2)[C@@H](C)CN([C@H](C)CO)C(=O)c2cc(NC(=O)c3ccncc3)ccc2O1 | 1 | 3
C[C@@H]1CCCCO[C@H](CN(C)S(=O)(=O)c2cn(C)cn2)[C@H](C)CN([C@@H](C)CO)C(=O)c2cc(N(C)C)ccc2O1 | 2 | 8
C[C@H](CO)N1C[C@H](C)[C@@H](CN(C)C(=O)Nc2ccc(C(F)(F)F)cc2)Oc2cc(-c3ccncc3)ccc2S1(=O)=O | -2 | -5
CNC[C@@H]1Oc2ccc(NC(=O)Cc3ccccc3)cc2C(=O)N([C@@H](C)CO)C[C@@H]1C | 3 | 5

Source: PubChem (Broad Institute)
